LANA-H2A inh: blocks KSHV LANA binding to histone H2A/H2B; Q9QR71; cell-free LANA-H2A/H2B peptide, fluorescence polarization; inhibition, % (concentration not given with the values); hit rate 0.6% among 320,000; AID 2629; in the data active = inhibition mostly above about 10%, no sharp cut-off; inactive = mostly below about 6.7%;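 note: stock transfer was 7.5 nL into about 10 µL; 0% = median of vehicle wells and 100% = median of positive control wells; one replicate is shown; the record names a cut of 25% in any replicate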
Target sequence (Q9QR71 whole entry, looked up): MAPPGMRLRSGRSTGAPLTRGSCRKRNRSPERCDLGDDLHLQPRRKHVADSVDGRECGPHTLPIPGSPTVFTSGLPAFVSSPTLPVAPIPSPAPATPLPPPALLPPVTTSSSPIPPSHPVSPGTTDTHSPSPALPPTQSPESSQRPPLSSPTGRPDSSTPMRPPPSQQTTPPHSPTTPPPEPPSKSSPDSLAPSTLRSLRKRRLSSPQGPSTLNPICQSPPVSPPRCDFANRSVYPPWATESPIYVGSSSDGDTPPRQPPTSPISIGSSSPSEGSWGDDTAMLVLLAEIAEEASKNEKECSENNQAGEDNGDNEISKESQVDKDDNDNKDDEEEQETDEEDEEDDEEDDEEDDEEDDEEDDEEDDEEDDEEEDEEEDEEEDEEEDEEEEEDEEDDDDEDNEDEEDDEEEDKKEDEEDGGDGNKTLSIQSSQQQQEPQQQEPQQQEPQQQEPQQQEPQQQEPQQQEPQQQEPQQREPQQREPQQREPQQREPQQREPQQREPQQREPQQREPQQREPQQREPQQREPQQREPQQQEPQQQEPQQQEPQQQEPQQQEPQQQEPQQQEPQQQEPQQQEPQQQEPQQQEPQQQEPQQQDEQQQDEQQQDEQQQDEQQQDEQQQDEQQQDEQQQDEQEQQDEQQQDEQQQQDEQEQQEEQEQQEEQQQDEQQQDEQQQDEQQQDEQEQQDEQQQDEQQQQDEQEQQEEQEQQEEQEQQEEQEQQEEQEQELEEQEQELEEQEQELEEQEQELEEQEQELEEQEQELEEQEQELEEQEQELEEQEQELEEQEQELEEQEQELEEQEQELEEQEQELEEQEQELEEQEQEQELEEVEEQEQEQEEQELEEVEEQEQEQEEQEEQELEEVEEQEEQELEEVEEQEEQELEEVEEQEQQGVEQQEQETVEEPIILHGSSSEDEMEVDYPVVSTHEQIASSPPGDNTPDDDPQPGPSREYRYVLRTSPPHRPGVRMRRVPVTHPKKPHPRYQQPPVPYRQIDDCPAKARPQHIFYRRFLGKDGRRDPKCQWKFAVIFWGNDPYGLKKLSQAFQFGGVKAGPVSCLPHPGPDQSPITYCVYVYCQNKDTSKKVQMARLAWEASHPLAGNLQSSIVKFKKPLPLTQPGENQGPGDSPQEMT
Bfl-1 A1 inh: inhibitors of the anti-apoptotic protein A1, read as caspase activation; caspase activation, % (no concentration beside the values); hit rate 0.066% among 330,000; MEF A1-2A-BIM cells, Caspase-Glo 3/7 luminescence, 3 h; percent of clofoctol response, vehicle zero;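 active = over half of replicate activation scores above 10%, or exactly half above 10 with the replicate mean above 10; inconclusive = replicate mean below 10 yet half the replicates above 10; inactive = over half of replicates below 10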;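 note: wells of about 30 µL received 50 nL stock; many hits fall short of the cut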
Calb FLC: C. albicans growth modulation with fluconazole; C. albicans CaCi-2 (fluconazole-resistant clinical isolate) + fluconazole, Alamar Blue growth, 48 h; growth inhibition, % (concentration not given with the values); hit rate 0.57% among 300,000;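 active = most replicates above 75%; inconclusive = exactly half above 75%; inactive = most below 75%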;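 note: all wells also contain fluconazole at 8 µg/ml as a sub-toxic cotreatment; 0% = median of DMSO wells and 100% = median of geldanamycin control wells; wells of about 8 µL received 7.5 nL stock; the first replicate is given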
T cruzi repl: blocks replication of Trypanosoma cruzi; T. cruzi beta-gal in NIH3T3, luminescence, 90 h; inhibition, % (concentration not given with the values); hit rate 1.4% among 300,000; AID 1885;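 active = mean inhibition across valid replicates above about 55%, limit read from the data; inconclusive = mean below that limit but half or more replicates reach it; inactive = mean below it, under half of replicates reach it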;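 note: signal also drops with host cell toxicity which is not excluded here; 0% = plate median of DMSO wells and 100% = zero luminescence signal; higher percent means less beta-gal luminescence so fewer parasites; stock transfer was 50 nL into about 50 µL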
RanGTP-Impb inh: disruptors of Ran-importin-beta complex formation – biochemical, FRET, CFP-Ran, YFP-importin-beta, homogeneous, primary screen; hit rate 1.1% among 300,000; inhibition, % (no concentration beside the values); cell-free CFP-Ran/YFP-importin-beta FRET ratio;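 active = most replicates above 15%; inconclusive = exactly half above 15%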;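 note: 0% = DMSO wells and 100% = Ran loaded with GDP instead of GTP; wells of about 40 µL received 100 nL stock; the first replicate is given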
AF4-AF9 inh: inhibitors of human MLL-AF4/AF9 interaction | P42568 | AlphaScreen, biotin-AF4 peptide binding to FLAG-AF9 | inhibition, % at 10 µM | hit rate 0.47% among 350,000 | AID 651704;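 active = every replicate reaching a set inhibition limit, whatever the replicate mean, cut at about 25% in these data; inconclusive = mean inhibition reaches that limit but some replicates miss it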;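 note: 0% = plate neutral control median and 100% = total signal loss; the record names both 10 and 1 µM as test concentration; the first replicate is given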
Vif TR-FRET: HIV-1 Vif–A3G interaction blockers – biochemical, TR-FRET, GST-Vif 1-94, biotin-A3G peptide, dose response retest, primary screen (AID 1117319); TR-FRET GST-Vif / biotin-A3G peptide binding; higher % means a stronger effect; test concentration not given here; strong numbers were not always called active; inhibition, %, or IC50 in µM where a hit was titrated; hit rate 0.57% among 260,000;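 active = above the screen mean plus three standard deviations and confirmed in dose response; inconclusive = results disagree or hit not tested in dose response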;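 note: Vif residues 1-94 fused to GST binding biotinylated APOBEC3G peptide 110-148; 0% = full assay without inhibitor and 100% = GST in place of GST-Vif; retest series ran down from 100 µM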
Beta cell apopt: blocks beta cell apoptosis | INS-1E cytokine-induced death, ATP luminescence, 48 h; percent of positive-control rescue, neutral wells zero | protection from apoptosis, % (concentration not given with the values) | hit rate 0.8% among 300,000;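 active = all replicates at 75% or more, or half of them and the mean; inconclusive = half reach 75% but not the mean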;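 note: 0% = cytokine-treated negative control wells and 100% = positive control rescue; higher means more ATP so stronger rescue from cytokine killing; wells of about 40 µL received 100 nL stock; the first replicate is given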
* hit, by the source's call; u = inconclusive; x = not tested or not shown; & = joins results of further samples.

SMILES	LANA-H2A inh	Bfl-1 A1 inh	Calb FLC	T cruzi repl	RanGTP-Impb inh	AF4-AF9 inh	Vif TR-FRET	Beta cell apopt
O=C(NC1CC1)c1cc2c(F)cccc2s1	-5.0	-1.1	0	-12	-0.8	x	-6%	-1
COc1ccc(NC(=O)CS(=O)CC(=O)Nc2cc(Cl)ccc2OC)cc1 (stereo not given)	1.2	-0.3	-3	-1	0.4	x	7%	-5
O=C(CSc1ccc(-c2ccccn2)nn1)NCc1ccc(F)cc1	-1.6	0.4	-27	-5	-2.1	-1.2	x	1
CCCc1n[nH]c2c1C(=O)CC(C)(C)C2	2.5	1.6	-4	3	2.5	x	1%	x
O=C(C1CC(=O)N(C2CCCCC2)C1)N1CCN(c2cccc(C(F)(F)F)c2)CC1 (stereo not given)	5.3	0.6	x	-3	x	-0.3	6%	2
CCC1Sc2ccc(S(=O)(=O)CCC(=O)Nc3ccccc3Cl)cc2NC1=O (stereo not given)	1.9	0.6	17	5	1.6	-1.6	x	-8
COc1ccc(C2=NC(c3ccccc3)CO2)cc1 (stereo not given)	-3.0	-4.8	3	-3	0.0	x	-8%	2
COC(=O)Cn1cc(/C=N/NC(=O)c2ccc(C#N)cc2F)c2ccccc21	-2.1	1.1	13	-25	4.0	x	-4%	-6
COc1ccc(CC(=O)Nc2cccc(-c3csc(C)n3)c2)cc1	3.4	-0.6	-3	13	-0.8	x	24%	1
C=CCn1c(CCSCc2ccccc2)n[nH]c1=S	0.9	-0.2	-1	-7	6.1	-1.4	-6%	-9
O=C(NCc1ccc2c(c1)OCO2)c1cccc2c1C(=O)N(C1CCCCC1)C2	-0.7	-0.4	1	14	-4.0	-4.6	1%	0
C#CCOCCOCCOCCNc1nc(N2CCOCC2)nc(N2CCN(C(=O)[C@H](CCC(=O)O)n3cc(C(N)Cc4ccc(O)cc4)nn3)CC2)n1 (stereo not given in full)	4.0	0.9	-5	-13	u	x	-1%	8
CC1=NN(C(=O)c2ccc(Cl)cc2)C(O)(c2ccccc2)C1 (stereo not given)	9.9*	-0.1	-6	-5	3.8	1.8	x	-7
COc1ccc(CCNC(=O)CSCc2ccc(Cl)cc2)cc1OC	4.5	0.6	6	-10	-1.4	0.2	x	-3
Cc1ccc(N(CC(=O)Nc2ccccc2C(=O)N2CCOCC2)S(C)(=O)=O)cc1	-2.7	0.6	3	-15	-1.5	x	23%	-2
COc1cc(NC(=O)COC(=O)c2cnc(C)cn2)c(C)cc1[N+](=O)[O-]	0.6	0.2	11	-25	-0.1	-2.6	-9%	-9
CCN(CC(=O)NCc1ccc(Cl)cc1)C(=O)/C=C/c1cccs1	6.2	-0.8	3	-5	-2.9	2.0	10%	-13
CCCCCOc1ccc(C(=O)CCN2CCOCC2)cc1	3.9	-0.3	12	53	1.4	-5.7	x	8
CCc1c(C(=O)NC2CCCC2)csc1C	2.5	0.3	-20	12	7.6	x	0%	-3
Cc1cc(C)n2nc(CC(=O)NNC(=O)COc3ccccc3)nc2n1	1.9	0.8	-4	2	0.9	1.9	x	x
COc1ccc2sc(N3C(=O)C4CC=C(C)CC4C3=O)nc2c1 (stereo not given)	-2.2	0.0	-5	-3	-4.4	x	3%	-1
CC(C)NC(=O)Nc1ccc2c(c1)C(=O)N([C@H](C)CO)C[C@H](C)[C@@H](CN(C)C(=O)NC1CCCCC1)O2	1.6	-0.4	x	x	x	-19&-5.0	x	-4
Cc1cc(NC(=O)c2cc([N+](=O)[O-])ccc2Cl)no1	-0.8	-0.2	2	-16	0.8	-4.1	-2%	-11
COc1ccc(CN2CCNC(=O)C2CC(=O)NC2CCCCC2)c(OC)c1 (stereo not given)	-0.1	0.2	-30	8	7.2	3.4	-4%	-3
CC1CCCN(C(=O)c2cn(-c3ccccc3)nc2-c2cccnc2)C1 (stereo not given)	0.0	-0.3	-11	3	x	5.5	2%	1
N#C/C(=C\c1ccc(-c2ccc(C(=O)O)cc2)o1)C(=O)Nc1ccc(F)cc1	-3.0	-1.1	-10	3	-25	1.2	16%	-5
N#Cc1cccc(-c2nnc(SCc3ccccc3C#N)o2)c1	0.8	0.9	20	-4	u	x	3%	-1
Cc1ccc(N2CCN(c3ccc(C)cc3)C2c2ccccn2)cc1	-1.7	0.6	-2	-3	20*	5.2	76µM*	13
CCN(Cc1ccc2c(c1)OCO2)C(=O)CSc1nc(C)nc2sc(C)c(C)c12	-3.5	0.8	x	x	x	-3.4	x	-6
CCN(CC)C(=O)CSC(Nc1ccc(F)cc1)=C(C#N)C#N	-5.2	-0.1	-6	-8	-0.1	1.2	6%	-5
CC1=NN(c2ccccc2)C(=O)/C1=C\c1cc(C)n(C)c1C	-0.4	0.2	9	9	-0.8	-14	7%	-23
Cc1ccc(-c2c(C(=O)N/N=C/c3c[nH]c4ccccc34)nnn2-c2nonc2N)cc1	7.2	1.2	4	11	-2.8	3.5	15%	-16
COC(=O)CN1C2(C#N)CCCCC2CC2CCCCC21C#N (stereo not given)	2.2	-0.1	-2	-3	3.0	x	-4%	-2
O=C(Nc1nc(COc2ccccc2)cs1)C1CCC1	0.3	-1.7	15	13	3.1	x	0%	16
CC(OC(=O)c1cccs1)C(=O)NCc1ccco1 (stereo not given)	-0.4	1.1	-10	-8	-1.5	x	4%	-10
CCc1nc(CN(C)C(=O)C2CCC(=O)N(CCc3cccc(F)c3)C2)no1 (stereo not given)	-0.3	-0.3	1	-4	1.4	-0.3	x	-1
Cc1cccc(C)c1OCC(O)CNS(=O)(=O)c1ccccc1C(=O)N1CCOCC1 (stereo not given)	x	x	-23	0	0.8	x	14%	x
O=C1CCC(=O)N1c1nc2nc(-c3ccccc3)cc(=O)n2[nH]1	2.9	0.2	22	-17	-2.7	x	10%	-4
Cc1cc(NC(=O)CSc2ccc(-c3ccc(F)cc3)nn2)no1	2.1	-2.8	1	-3	-1.7	0.1	-11%	-4
O=C(NC(=S)NNS(=O)(=O)c1ccccc1)c1ccccc1[N+](=O)[O-]	1.3	0.6	-1	-7	-1.5	-4.8	u	-4
Nc1ccc(C(=O)C(=O)c2ccccc2)cc1	-2.1	0.0	-4	-8	-1.1	0.3	x	-6
O=[N+]([O-])c1ccccc1COc1ccc(Cl)c2cccnc12	-5.0	-7.8	1	-5	-2.5	1.4	-1%	0
COc1ccc(NC(=O)COC(=O)c2ccc(-n3nc(C)cc3C)cc2)cc1OC	-3.4	-1.3	x	x	x	-18	x	-10
Cc1nnc(NC(=O)CSc2cn(Cc3ccccc3)c3ccccc23)s1	4.4	0.5	-2	0	3.8	4.2	3%	-8
O=C(COc1ncnc2ccccc12)Nc1cc(S(=O)(=O)N2CCOCC2)ccc1Cl	1.0	0.1	-4	4	-2.7	x	-4%	1
COC(=O)CC1=C(C(=O)OC)C(c2ccncc2)C(C#N)=C(N)O1 (stereo not given)	-4.3	0.0	1	-11	0.5	x	1%	0
COc1ccccc1CCN=C(N)NS(=O)(=O)c1ccc(C)c(C)c1	-1.9	-0.4	-2	-5	2.6	-0.5	x	0
c1cc(C2OCCN2CC2COC3(CCCC3)O2)ccn1 (stereo not given)	-9.5	0.0	1	-8	0.9	x	6%	4
O=C(COC(=O)c1cc(=O)[nH]c2ccccc12)c1ccccc1	-1.9	-0.5	-3	-1	-1.1	-0.3	4%	-4
COc1ccc(C(CC(=O)O)NC(C)=O)cc1OC (stereo not given)	2.6	-0.6	5	-6	-0.9	x	11%	3
COc1ccc([N+](=O)[O-])c(OC)c1C(=O)NC(=O)Nc1c(F)cc(F)cc1F	20	-0.9	4	-15	-1.6	3.2	17%	-6
CC1=CC(C)(C)N(S(=O)(=O)c2ccc(C)cc2)c2ccccc21	-4.1	0.0	-8	-6	2.7	x	-5%	x
NS(=O)(=O)c1ccc(CCNC(=O)C2CC(=O)N(Cc3ccccc3Cl)C2)cc1 (stereo not given)	-1.7	0.8	x	x	x	-0.9	-1%	0
N#Cc1cn(Cc2ccccc2)c(=O)[nH]c1=O	-3.7	0.3	-5	-8	-12	-1.1	4%	x
CCOC(=O)N1CCN(C(=O)CSc2ccc(-c3ccccc3)nn2)CC1	-3.0	-0.7	37	1	-1.1	-1.3	12%	2
COCC(C)NC(=O)C1CC(c2cccc(Br)c2)=NO1 (stereo not given)	-0.7	1.4	-1	5	0.4	x	69%	-7
C=CCOc1ccc(Br)cc1/C=N/O	-4.4	0.0	-37	1	-2.9	x	71%	-4
CCOC(=O)c1c(/N=C/N(C)C)sc(C)c1C	-1.5	0.6	20	5	-3.5	0.2	-8%	-7
CCC(C)(C)NC(=O)C(c1ccc(OC)cc1)N(C(=O)CCC(=O)Nc1cc(C)on1)c1ccccc1F (stereo not given)	9.0	0.2	-2	3	-3.8	-7.6	x	4
CC12CCC(=O)N1C(C(=O)Nc1nc3ccc(F)cc3s1)CS2 (stereo not given)	0.4	0.0	x	x	x	-1.3	2%	-2
Additional compounds:
SMILES	LANA-H2A inh	Bfl-1 A1 inh	Calb FLC	T cruzi repl	RanGTP-Impb inh	AF4-AF9 inh	Vif TR-FRET	Beta cell apopt
Cn1c(=O)c(C(=O)CSc2nnc(Nc3ccccc3)s2)c(N)n(Cc2ccccc2)c1=O	0.5	-0.6	-13	3	-3.8	x	24%	-2
Cc1cc(C)n(-c2nnc(N3CCN(c4ccc(F)cc4)CC3)nn2)n1	2.8	-0.4	2	0	u	1.2	x	9
CCOc1cc(C2Nc3ccccc3NC3=C2C(=O)CC(C)(C)C3)ccc1OC(C)=O (stereo not given)	-4.9	-0.2	-6	-3	-0.5	-4.7	x	27
COc1cccc(C(=O)NCCSc2c(C)[nH]c3ccccc23)c1OC	1.2	0.3	-9	10	-5.0	3.9	-1%	0
CC(C)CCn1c(=O)c2ccccc2n2c(=S)[nH]nc12	1.3	0.3	-12	0	1.2	-0.7	x	-12
Cc1ccc2nc3c(cc(C(=O)NCc4ccco4)c(=N)n3Cc3ccco3)c(=O)n2c1	2.6	-0.8	6	9	89*	-1.7	-2%	-2
N#Cc1ccc2ccn(CC(=O)NCc3ccccc3)c2c1	-2.8	0.2	15	11	2.2	x	7%	-7
COc1ccc(CCNC(=O)CSc2ccsc2[N+](=O)[O-])c(OC)c1	0.6	-0.2	-4	-5	4.5	0.8	-8%	1
CCOC(=O)N1CCc2c(sc(NC(=O)c3ccc(S(=O)(=O)N4CCCC4)cc3)c2C#N)C1	-4.7	0.0	6	-4	3.9	5.2	10%	8
Cc1nc2c(C)cccn2c1/C(O)=C1\C(=O)C(=O)N(CCN2CCOCC2)C1c1ccncc1 (stereo not given)	-2.6	-0.8	10	-10	11	x	-4%	-1
CC1=C(C(=O)Nc2ccccc2)C(c2ccco2)C(C#N)=C(SCC(N)=O)N1 (stereo not given)	5.9	-0.2	-5	-4	-0.9	-3.4	27%	2
CC(NC(=O)c1cccnc1)C(c1cccs1)N1CCN(C)CC1 (stereo not given)	1.5	-0.2	4	3	-3.2	1.3	-4%	-5
